Source: PubChem BioAssay
CtBP-E1A inh: CtBP/E1A binding inhibition; AlphaScreen GST-E1A/His-CtBP binding, 1536-well; hits give low values; control for the full effect not named in the record; activity change, % (test concentration not listed); 340,000 compounds, 0.49% hits; AID 651724; in the data active means activity change below about -65%; inconclusive means about -30% to -65%; inactive means above about -30%; further: on the % scale 0 is the no-effect control and ±100 the full control effect
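Protein mix (5X: 125 nM each GST-E1A, His-CtBP) was incubated with pinned compound 2 h at 37 deg C in dark, in 50 mM Tris pH 8.0 buffer with 300 mM NaCl. Glutathione donor and nickel acceptor beads followed; AlphaScreen signal read after 1 h.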
TRPML1 inh: inhibitors of human TRPML1 channel. TRPML1-inducible cells, Ca2+ dye fluorescence, FDSS; hits give low values; inhibition of EC80 agonist-evoked calcium signal. activity change, negative = inhibition, % (concentration not given with the values). 390,000 compounds, 0.02% hits; in the data active means activity change below about -50%; inconclusive means about -30% to -50%; inactive means above about -30%;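 further: stimulus is agonist 54-4 at its EC80 concentration; on the % scale 0 is the no-effect control and ±100 the full control effect; the text of the record puts the active cut at -80%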
Target sequence (Q9GZU1 whole entry, looked up): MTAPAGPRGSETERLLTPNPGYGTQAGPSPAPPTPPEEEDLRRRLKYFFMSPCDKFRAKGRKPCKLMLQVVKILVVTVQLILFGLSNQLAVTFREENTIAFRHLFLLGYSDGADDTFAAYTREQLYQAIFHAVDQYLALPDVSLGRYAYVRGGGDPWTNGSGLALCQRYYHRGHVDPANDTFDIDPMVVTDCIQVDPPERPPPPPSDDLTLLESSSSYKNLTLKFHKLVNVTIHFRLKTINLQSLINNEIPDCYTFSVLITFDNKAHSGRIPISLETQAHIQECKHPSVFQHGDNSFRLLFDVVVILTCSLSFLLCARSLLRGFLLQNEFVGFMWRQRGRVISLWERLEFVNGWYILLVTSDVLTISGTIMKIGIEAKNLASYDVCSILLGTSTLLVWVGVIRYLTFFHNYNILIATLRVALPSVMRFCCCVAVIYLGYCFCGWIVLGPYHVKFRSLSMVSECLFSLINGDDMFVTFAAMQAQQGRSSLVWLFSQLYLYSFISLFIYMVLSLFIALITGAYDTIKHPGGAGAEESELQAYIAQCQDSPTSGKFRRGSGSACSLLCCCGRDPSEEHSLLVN
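Calcium fluorescence in TRPML1-DL cells induced overnight with Tet: a 110 s read after compound pin addition, then a 110 s antagonist read after challenge with 54-4 at 4 uM final (EC80).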
D2 ag: agonists of human D2 dopamine receptor (beta-arrestin) | DiscoveRx PathHunter D2 beta-arrestin, luminescence, 90 min; 100% = 57 uM dopamine signal | activation, % (concentration not given with the values) | 360,000 compounds, 0.084% hits | AID 624465 | P14416; in the data active = activation above about 40%; inconclusive = about 15% to 40%; inactive = below about 15%; further: the text of the record calls up to 30% inactive
Target sequence (P14416 whole entry, looked up): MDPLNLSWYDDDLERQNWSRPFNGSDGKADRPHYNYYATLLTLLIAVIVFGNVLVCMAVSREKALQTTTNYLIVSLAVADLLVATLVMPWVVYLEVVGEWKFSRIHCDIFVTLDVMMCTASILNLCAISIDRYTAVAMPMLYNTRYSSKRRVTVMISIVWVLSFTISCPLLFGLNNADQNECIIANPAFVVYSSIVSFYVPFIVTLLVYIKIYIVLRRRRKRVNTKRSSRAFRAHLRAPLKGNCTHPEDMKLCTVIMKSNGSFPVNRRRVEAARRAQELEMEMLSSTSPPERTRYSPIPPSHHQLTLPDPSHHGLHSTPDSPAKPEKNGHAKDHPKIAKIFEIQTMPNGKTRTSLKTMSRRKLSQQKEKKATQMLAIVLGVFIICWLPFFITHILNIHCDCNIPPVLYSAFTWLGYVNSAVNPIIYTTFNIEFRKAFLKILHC
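DiscoveRx PathHunter D2 beta-arrestin cells (2,100/well) attached overnight, then compound-stimulated 90 min at 37 C in HBSS/10 mM HEPES/0.1% Tween-20 buffer; beta-galactosidase complementation read by luminescence after 1 h at ambient temperature. Dopamine 57 uM final (EC100) as control.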
TRPML1 agonist: human mucolipin-1 channel agonism | TRPML1-expressing cells, Ca2+ dye fluorescence, FDSS; host cell line not named in the record; reference of the full effect not given here | activation, % (no concentration beside the values) | 410,000 compounds, 0.12% hits; in the data active = activation above about 50%; inconclusive = about 30% to 50%; inactive = below about 30%; further: 0% is about no effect; the text of the record puts the active cut at 80%
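Cells: TRPML1-DL, 1X Tet inducer, ~16 h at 37 degrees C/5% CO2. Dye: ABD Ca8 no-wash + quencher, 45-90 min RT. Read: 10 s baseline, compound add, 110 s agonist phase; 54-4 EC80 (4uM final), 110 s antagonist phase.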
Six1-Eya2 inh: blocks human Six1 binding to Eya2. Q15475+O00167. AID 651725. activity change, % (concentration not given with the values). 360,000 compounds, 0.56% hits. AlphaScreen GST-Six1/His-Eya2 binding, biochemical; hits give low values; control for the full effect not named in the record; in the data active = activity change below about -65%; inconclusive = about -30% to -65%; inactive = above about -30%; further: on the % scale 0 is the no-effect control and ±100 the full control effect
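Compounds are tested against tagged Six1 and Eya2 proteins bridged by glutathione donor and nickel acceptor beads; after a one-hour incubation at 37 °C without light, AlphaScreen emission is recorded.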
PINK1 expr mod: modulators of PINK1 expression; PINK1 immunofluorescence, high-content cytometry, 24 h; Potency, µM (highest dose often 76.6 µM), for the others: top-dose activation (PINK1 increase), actives largely listed as activators; 410,000 compounds, 0.2% hits; active = well fitted activation curve with a large enough effect; inconclusive = small, poorly fitted or top-dose-only effect; inactive = flat fitted curve, though single readings scatter; cell line not stated here;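 further: potency means the concentration at half of the fitted maximal effect; % of control where 0% means no effect; nearly all actives have a fitted effect of over 65% in size; a mitochondrial uncoupler was the plate control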
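A stable cell line was treated with compounds at 5 concentrations for 24 hours, with CCCP as control. PINK1 levels and mitochondrial localization were measured by immunofluorescence with mitochondrial, cell and nuclear markers after fixation, read by laser-scanning cytometry.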
Numbers without * were called inactive; ? = inconclusive; nt = no result given; & = joins results of further samples; [ ] = dose if it differs, or a comment.

SMILES	CtBP-E1A inh	TRPML1 inh	D2 ag	TRPML1 agonist	Six1-Eya2 inh	PINK1 expr mod
NNC(=O)c1ccccc1OCc1ccccc1	nt	-7	-4.1	-0.2	1	0.6%
O=C(Nc1ccc(F)cc1F)c1ccc2c(c1)[nH]c(=O)n2Cc1ccc(F)cc1	0	7	-3.2	-0.5	-6	13%
O=C(CSc1nccn1-c1ccccc1)c1ccc(Cl)cc1	-11	23	-3.5	7.7	-16	-1.0%
CCCS(=O)(=O)N1CCC(C(=O)NCc2cccnc2)CC1	7	45	-4.2	-1.5	18	-0.5%
Cc1ccccc1NC(=O)CSc1nc(-c2ccccc2)cn1-c1ccccc1F	nt	31	nt	0.4	nt	-0.1%
CCOc1ccc(CNn2nnnc2N)cc1	10	-2	-0.4	0.5	7	-1.3%
COc1cccc(OC)c1OCCNCCO	10	0	-2.2	-0.8	-1	-1.0%
Cc1cc2nc(C)c(Cl)c(=O)n2[nH]1	0	6	0.1	3.1	-3	1.5%
Cc1ccc(NC(=O)CCNS(=O)(=O)c2ccc3c(c2)CCCC(=O)N3)cc1	nt	14	nt	0.6	nt	-1.5%
COc1cccc(C(=O)N(c2ccc(C)cc2)C2C=CS(=O)(=O)C2)c1 (configuration not stated)	nt	14	-1.1	-0.6	18	-1.5%
Cc1cc(C(=O)COc2ccc3ccc(=O)oc3c2)c(C)n1C	nt	-14	4.1	0.0	-21	0.2%
CC(=O)Nc1ccc(OC(F)(F)C(F)F)c(NC(C)=O)c1	5	-9	0.2	0.8	2	2.8%[38.3 µM]
CCOC(=O)C1=C(C)N(CCCC(=O)O)C(=O)NC1c1ccc(Cl)cc1 (configuration not stated)	-3	1	-1.4	-0.1	-10	1.8%
COc1ccc(NC(=O)c2ccc(Cl)c(S(=O)(=O)N3CC(C)OC(C)C3)c2)cn1 (configuration not stated)	nt	0	-2.4	-0.2	-7	5.3%
O=C(NC(n1ccc(=O)[nH]c1=O)C(Cl)(Cl)Cl)C12CC3CC(CC(C3)C1)C2 (configuration not stated)	5	-19	0.8	1.8	-1	6.1%
COC(=O)[C@@H]1Cc2c([nH]c3ccccc23)C2CCC(=O)N21 (some centres not stated)	8	2	-1.2	-0.9	26	3.5%
CCN(CC)CCN(Cc1cc2cc3c(cc2[nH]c1=O)OCO3)C(=S)NCC1CCCO1 (configuration not stated)	21	-12	-2.5	0.0	1	-1.0%
NC(=O)CC(NC(=O)Cc1cccc2ccccc12)c1ccc(N2CCC(Cc3ccccc3)CC2)c([N+](=O)[O-])c1 (configuration not stated)	-15	-9	-4.6	-0.3	-14	2.0%
O=C1/C(=C\c2cccnc2)SC(=S)N1C1CCS(=O)(=O)C1 (configuration not stated)	-11	4	0.4	1.2	-7	-1.4%[38.3 µM]
C/C(=N/NC(=O)c1cccc(C)c1)c1c(O)cc(C)oc1=O	-3	-1	-0.6	0.1	9	-0.5%
COc1ccc(-n2c3c(c(=O)[nH]c2=O)C(NC(=O)c2ccncc2)(C(F)(F)F)C(=O)N3)cc1 (configuration not stated)	-22	-1	2.2	0.7	-2	-2.0%
CCOC(=O)c1sc2ccccc2c1S(=O)(=O)NCc1ccc(F)cc1	nt	37	nt	3.8	nt	2.1%
Nc1ncnc(SCc2c(F)cccc2Cl)n1	nt	-3	-3.2	-0.8	3	0.4%
COc1ccccc1N1CCN(c2nc(-c3ccccc3)cc(C(F)(F)F)n2)CC1	-6	2	-1.8	0.6	4	6.3%
CC(=O)N1c2ccc(S(=O)(=O)NCCC(=O)N(C)Cc3ccccc3)cc2CC1C (configuration not stated)	2	18&-2	-2.5	0.8&0.0	-1	-1.2%&1.6%

Arranged by molar mass (falling): some entries from above.
SMILES	CtBP-E1A inh	TRPML1 inh	D2 ag	TRPML1 agonist	Six1-Eya2 inh	PINK1 expr mod
COc1ccc(-n2c3c(c(=O)[nH]c2=O)C(NC(=O)c2ccncc2)(C(F)(F)F)C(=O)N3)cc1 (configuration not stated)	-22	-1	2.2	0.7	-2	-2.0%
COc1ccccc1N1CCN(c2nc(-c3ccccc3)cc(C(F)(F)F)n2)CC1	-6	2	-1.8	0.6	4	6.3%
Cc1cc2nc(C)c(Cl)c(=O)n2[nH]1	0	6	0.1	3.1	-3	1.5%

(list continues)
SMILES	CtBP-E1A inh	TRPML1 inh	D2 ag	TRPML1 agonist	Six1-Eya2 inh	PINK1 expr mod
CCC(C)N1C(=O)S/C(=C/c2ccc(N3CCOCC3)cc2C)C1=O (configuration not stated)	12	4	-2.4	1.0	2	7.4%
COC(=O)Nc1ccc2ncn(C)c(=O)c2c1	-1	24	-3.9	-0.2	-7	0.4%
COc1ccc(C2c3c(oc4ccc(F)cc4c3=O)C(=O)N2Cc2ccc3c(c2)OCO3)cc1 (configuration not stated)	nt	-8	nt	-0.3	nt	-1.5%
CCn1c(=O)cc(SCC(=O)NCc2ccccn2)c2ccccc21	-19	4	-0.5	0.3	-18	2.0%[38.3 µM]
Cc1cc(C)cc(NC(=O)CSc2ccc(-c3ccco3)nn2)c1	-15	-13	-5.8	0.2	-14	1.8%
Cc1ccc(S(=O)(=O)N2CCN(c3nc4ccccc4nc3-n3nc(C)cc3C)CC2)cc1	25	-5	-1.4	2.8	25	0.6%
Cc1onc(-c2ccccc2)c1C(=O)N1CCN(c2ncccn2)CC1	0	8	-0.9	0.9	4	-0.5%
O=[N+]([O-])c1ccc(N2CCOCC2)cc1NCc1ccccc1	-18	-21	-5.4	-0.8	-19	7.9%
O=C1OC2CCC1(c1ccccc1)C2 (configuration not stated)	-4	10	0.9	-0.6	10	2.0%
Cn1nc(C(=O)OCC(=O)N2CCc3ccccc32)c2ccccc2c1=O	-11	8	-1.1	2.5	-2	-2.7%
O=C(O)[C@H]1CCCC[C@H]1C(=O)Nc1cc([N+](=O)[O-])ccc1F	3	45	-2.0	0.2	-4	1.7%
COc1ccc(C)cc1NC(=O)CN1CCCC1c1ccc2c(c1)OCCCO2 (configuration not stated)	-5	38	-0.4	4.7	-4	2.3%
COc1ccc(COc2ccc(C3C(S(=O)(=O)c4ccccc4)CON3C)cc2OC)cc1 (configuration not stated)	6	17	-0.9	-0.4	4	-0.8%
CCc1ccc(C(=O)Nc2ccc(OC)c(S(=O)(=O)N3CCCCC3)c2)cc1	nt	-1	-1.1	-1.5	-5	-0.7%
Cc1ccc(OCC(=O)Nc2ccccc2C(=O)OCc2cc(=O)n3nc(C4CC4)sc3n2)cc1	nt	3	nt	-0.7	nt	-0.3%
CC(C)CSc1nnc2c3ccccc3n(C)c2n1	-4	49	-8.7	2.4	-28	-1.4%
Cc1nc(N)nc(N)c1CCCc1ccc(Cl)c(Cl)c1	-12	-2	-1.3	2.1	-7	-2.0%
O=C(COc1coc(CN2CCCc3ccccc32)cc1=O)Nc1ccc([N+](=O)[O-])cc1	-16	-2	-0.8	1.9	-4	18%
CSc1ccc(CN(C)CC(=O)NCCc2ccccc2)cc1	-1	10	-2.3	0.0	2	1.8%
O=C(NC(=S)NC1CC1)c1cccnc1	3	0	-2.0	0.1	7	-0.9%
O=C(CSC1=NCCS1)Nc1cccc(F)c1	0	5	5.1	0.8	-5	-0.2%
CC1(C)CC2CC(C)(CN2C(=O)c2ccccc2)C1 (configuration not stated)	4	-5	-0.8	-0.7	6	0.4%
CCOc1ccccc1C(=O)NCC(=O)NNC(=O)CN(C)S(=O)(=O)c1ccc(Cl)cc1	0	-12	?	-0.2	23	3.1%
CN(Cc1ccccc1)C(=O)CCC1CCN(S(C)(=O)=O)CC1	6	1	4.6	-0.6	1	0.6%
Cc1cccc(OCC(=O)N(Cc2cccs2)C2CCS(=O)(=O)C2)c1C (configuration not stated)	-3	9	-0.9	0.2	4	-1.4%
Continued:
SMILES	CtBP-E1A inh	TRPML1 inh	D2 ag	TRPML1 agonist	Six1-Eya2 inh	PINK1 expr mod
Cc1ccc2oc(=O)c(/C=C(\O)c3sc(C)nc3C)nc2c1	2	-3	1.4	0.2	-2	2.1%
CCOC(=O)C1CCN(S(=O)(=O)c2ccc3[nH]c(=O)c(=O)[nH]c3c2)CC1	1	1	0.0	-0.3	-3	4.2%
CC(C)(C)c1ccc(OC(=O)Cn2c(C(F)(F)F)nc3ccccc32)cc1	10	-7	4.4	3.1	9	23%
Nc1nn(-c2ccccc2)c(N)c1N=Nc1ccccc1F	-4	45	-4.1	1.2	?	6.1%
Cn1c(=O)c2c(nc(NC3CCCCC3)n2Cc2ccccc2)n(C)c1=O	2	14	-2.2	0.2	2	0.8%
NS(=O)(=O)c1ccc(CCNc2nc(C(F)(F)F)nc3ccccc23)cc1	8	-3	1.6	-0.8	-2	-1.2%
O=C(CCC(=O)N1CCOc2ccc(Cl)cc21)NCCCN1CCN(Cc2ccccc2)CC1	1	-11	0.5	-0.8	-2	0.4%
COc1cc(/C=C2/C(=O)ON=C2c2ccccc2)ccc1O	-3	2	-5.7	0.6	-4	0.8%
CCCn1c(SCC(=O)NCc2ccc(F)cc2)n[nH]c1=O	3	-22	-3.7	0.3	3	0.7%
CCC(=O)c1coc2ccc(O)cc12	6	11	13	-0.1	-6	1.0%
CCCCN(CC)CCCNC(=S)Nc1ccc2nc(N3CCN(CC)CC3)cc(C)c2c1	-4	-1	4.2	-0.2	4	4.6%
CCS(=O)(=O)N1CCN(C2CCC(C)CC2)CC1 (configuration not stated)	-28	-5	-3.6	0.1	-7	nt
c1ccc(CCn2nnc3ccccc32)cc1	15	nt	-8.0	nt	10	3.3%
O=C(c1cc(-c2ccncc2)nc2ccccc12)N1CCN(c2ccccc2O)CC1	-9	-2	-1.7	-0.1	-7	4.2%
O=C(c1ccc(N2CCOCC2)c([N+](=O)[O-])c1)N1CCCCC1	-2	-1	3.3	0.8	-4	0.1%
COc1ccc(S(=O)(=O)N2CCC[C@H]2C(=O)N2CCC[C@H]2C(=O)NCc2ccccc2)cc1C	1	nt	nt	-0.9	-2	-0.2%
COc1ccc(OC)c(/C=N\NC(=O)CC(=O)NCCc2ccccc2)c1	-4	-13	-5.6	-0.6	5	1.3%
CCOc1ccc(S(=O)(=O)N2CCN(C3CC(=O)N(c4cccc(C(C)=O)c4)C3=O)CC2)cc1 (configuration not stated)	3	-10	-3.8	4.4	0	-1.4%
CC1CCCC(C)N1NC(=S)Nc1ccc(OC(F)F)cc1 (configuration not stated)	-5	13	-0.5	0.5	-1	0.0%
COc1ccc([N+](=O)[O-])cc1NC(=O)Nc1ccccc1	-3	3	-1.4	0.6	-16	2.4%

Entries of single compounds, quoted from the list.
Record of `CCOC(=O)C1CCN(S(=O)(=O)c2ccc3[nH]c(=O)c(=O)[nH]c3c2)CC1` : CtBP-E1A inh: 1; TRPML1 inh: 1; D2 ag: 0.0; TRPML1 agonist: -0.3; Six1-Eya2 inh: -3; PINK1 expr mod: 4.2%
Record of `CC(C)(C)c1ccc(OC(=O)Cn2c(C(F)(F)F)nc3ccccc32)cc1` : CtBP-E1A inh: 10; TRPML1 inh: -7; D2 ag: 4.4; TRPML1 agonist: 3.1; Six1-Eya2 inh: 9; PINK1 expr mod: 23%
Record of `CCOc1ccc(S(=O)(=O)N2CCN(C3CC(=O)N(c4cccc(C(C)=O)c4)C3=O)CC2)cc1` (configuration not stated) : CtBP-E1A inh: 3; TRPML1 inh: -10; D2 ag: -3.8; TRPML1 agonist: 4.4; Six1-Eya2 inh: 0; PINK1 expr mod: -1.4%

This is a random part of the collection; about 1% have a hit in one of these screens.
